SARS PLP yeast = blocks SARS-CoV papain-like protease in a yeast assay; S. cerevisiae expressing SARS-CoV PLpro, growth rescue; control for the full effect not named in the record; Potency, µM (titrated, usually from 32.9 µM), without a hit: top-dose activity, positive = growth rescue; 330,000 tested, 0.19% active; active means well fitted rising curve with a large enough effect; inconclusive means small, poorly fitted or top-dose-only effect; inactive means no such curve, though single readings can be large or run the other way; also: 0% is about no effect; nearly all actives have a fitted effect of over 55% in size; growth read by luminescence after 48 h
RE007 growth inh = less growth of the S. pombe RE007 Vpr strain; S. pombe RE007 Vpr strain, BacTiter-Glo ATP luminescence, 24 h; control for the full effect not named in the record; Potency, µM (top dose mostly 92.2 µM), for inactives: at the highest dose activity change, negative = less growth; 360,000 tested, 0.21% active; AID 651644; active = well fitted falling curve with a large enough effect; inconclusive = small, poorly fitted or top-dose-only effect; inactive = no such curve, though single readings can be large or run the other way;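 also: % is scaled to controls: 0 for no effect and ±100 for the full control effect; nearly all actives have a fitted effect of over 50% in size; the assay follows cell death caused by Vpr and the record does not say whether a fall means rescue or toxicity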
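Fission yeast RE007 carrying one integrated HIV-1 vpr copy, seeded at OD 0.01 in PMG+AL medium with 23 nL pinned compound. Grown 24 h at 30 degrees; viability read by BacTiter-Glo luminescence after 5 min.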
Marburg entry inh = blocks Marburg virus binding to or entry into cells; Potency, µM (doses to about 37.8 µM), for inactives: top-dose activity change, negative = inhibition, most hits filed as inhibitors; Marburg virus pseudotyped entry inhibition, cell reporter; control for the full effect not named in the record; about a third of the inactives were read at about 46 µM; 300,000 tested, 1.8% active; active = well fitted inhibition curve with a large enough effect; inconclusive = small, poorly fitted or top-dose-only effect, or effect the other way; inactive = flat fitted curve, though single readings scatter; tested in HEK293 cells; about a fifth of its hits are not listed in these tables; also: % is scaled to controls: 0 for no effect and ±100 for the full control effect; luciferase read-out
NS1 inh = blocks influenza NS1 protein function; S. cerevisiae slowed by influenza A NS1, growth recovery by OD600; Potency, µM (top dose mostly 46.1 µM), without a hit: at the highest dose activity, positive = more growth; 270,000 tested, 0.4% active; AID 2326; active means well fitted rising curve with a large enough effect; inconclusive means small, poorly fitted or top-dose-only effect; inactive means no such curve, though single readings can be large or run the other way; also: nearly all actives have a fitted effect of over 50% in size
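Compounds were scored for reversing the slow growth caused by influenza A NS1 in S. cerevisiae, measured by optical density at 600 nm. Assay medium contained 2% galactose at pH 6.0; NS1-free yeast of the same strain were the positive control.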
Cruzain Triton = inhibitors of Trypanosoma cruzi cruzain with detergent | P25779 | purified cruzain, Z-FR-AMC fluorescence, 0.01% Triton | Potency, µM, for inactives: max response, negative = inhibition, usual class: inhibitors | 200,000 tested, 0.43% active | AID 1478;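 also: plate controls were neutral wells for no effect and buffer without enzyme for full effect; nearly all actives have a fitted effect of over 40% in size; top concentration of the series not given in the record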
Target sequence (P25779 123-467 limits assumed): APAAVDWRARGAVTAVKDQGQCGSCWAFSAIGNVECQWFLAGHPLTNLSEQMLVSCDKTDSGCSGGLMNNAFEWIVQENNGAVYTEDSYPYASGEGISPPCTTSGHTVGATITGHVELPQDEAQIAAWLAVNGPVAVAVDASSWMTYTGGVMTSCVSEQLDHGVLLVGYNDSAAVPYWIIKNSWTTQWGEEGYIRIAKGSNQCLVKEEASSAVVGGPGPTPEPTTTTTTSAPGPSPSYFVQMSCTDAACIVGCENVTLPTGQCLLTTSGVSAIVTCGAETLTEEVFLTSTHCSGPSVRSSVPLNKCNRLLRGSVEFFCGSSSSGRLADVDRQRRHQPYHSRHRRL
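Cysteine protease activity tested under reducing, mildly acidic conditions (100 mM sodium acetate pH 5.5, 5 mM DTT) plus 0.01% Triton X-100. Cruzain 1.5 nM; substrate Z-FR-AMC 2 uM; 15 min compound preincubation at room temperature.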
Cruzain inh noDet = cruzain (T. cruzi) inhibition without detergent; P25779; purified cruzain, Z-FR-AMC fluorescence, no detergent; Potency, µM, for inactives: max response, negative = inhibition, hits mostly inhibitors; 200,000 tested, 2.3% active; AID 1476;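 also: plate controls were enzyme without inhibitor for no effect and buffer without enzyme for full effect; nearly all actives have a fitted effect of over 40% in size; top concentration of the series not given in the record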
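Purified cruzain at 1.5 nM, pre-incubated 15 min with compound at room temperature in 100 mM sodium acetate pH 5.5, 5 mM DTT, 0.00005% Triton X-100. Reaction started with 2 uM Z-FR-AMC; AMC fluorescence increase over 60 s gives rate.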
StopGo reporter = lowers the luciferase signal of an FMDV 2A StopGo reporter; human cells with a luciferase reporter of 2A StopGo recoding; control for the full effect not named in the record; Potency, µM (doses to about 57.9 µM), for inactives: at the top dose signal change, negative = less light; 410,000 tested, 1.2% active; AID 1159524; active = well fitted falling curve with a large enough effect; inconclusive = small, poorly fitted or top-dose-only effect; inactive = no such curve, though single readings can be large or run the other way; tested in HEK293T cells; also: % is scaled to controls: 0 for no effect and ±100 for the full control effect; nearly all actives have a fitted effect of over 45% in size; luciferase light after 4 h
LASV entry inh = blocks Lassa virus binding to or entry into cells; 300,000 tested, 1.2% active; Lassa virus pseudotype entry inhibition, cell reporter; control for the full effect not named in the record; Potency, µM (highest dose often 37.9 µM), without a hit: at the top dose activity change, negative = inhibition, actives largely listed as inhibitors; active means well fitted inhibition curve with a large enough effect; inconclusive means small, poorly fitted or top-dose-only effect, or effect the other way; inactive means flat fitted curve, though single readings scatter; tested in HEK293 cells; also: % is scaled to controls: 0 for no effect and ±100 for the full control effect; nearly all actives have a fitted effect of over 50% in size; luciferase read-out
Numbers without * were called inactive; ? = inconclusive; . = not tested or not shown; [ ] = dose if it differs, or a comment. Unless noted, calls follow the shape of the dose curve; as a rule, active = well fitted curve in the direction sought with a large enough effect; inconclusive = small, poorly fitted or top-dose-only effect, or another doubt; inactive = no such curve, though single readings can be large; an effect the other way counts as inactive or inconclusive. Potency is read from the fitted curve at half-maximal effect.

canonical_smiles,NS1 inh,Marburg entry inh,SARS PLP yeast,Cruzain Triton,RE007 growth inh,Cruzain inh noDet,LASV entry inh,StopGo reporter
COCCNC(=O)CSc1ccc(C)cc1,-11.0%,23.1%,-0.1%,1.6%,5.3%,-1.2%,1.4%,-5.8%
O=C(CN(C(=O)CCC(=O)Nc1nccs1)c1cccc(F)c1)NCc1ccccc1,-3.9%,-14.1%[46.1 µM],-1.1%,.,0.9%,.,?,12.1%
CCNC(=O)n1nccc1C(C)Oc1ccc(Cl)cc1 (stereo not given),-39.0%,3.2%,-3.0%,3.4%,-12.9%,-1.5%,-5.5%,-14.1%
CCCNC(=O)Cc1ccsc1,13.2%,26.1%,-10.8%,1.8%,-5.6%,-10.6%,-1.7%,-3.5%
Cc1ccc2[nH]c3c(=O)n(CC(=O)N(C)Cc4ccccc4)ncc3c2c1,.,.,.,-2.7%,.,-15.4%,-3.4%[46.1 µM],-29.8%
CC(=O)c1cccc(NC(=O)CCc2nc3sc4c(c3c(=O)[nH]2)CCCC4)c1,.,9.6%,5.0%,.,-6.1%,.,?,-14.9%
C=CCn1c(SCc2cc(C(=O)OC)c(C)o2)nnc1-c1ccncc1,8.3%,20.2%,4.8%,-0.1%,-4.2%,2.2%,?,?
CCc1ccc(NC(=O)c2cc(C)no2)cc1,-1.5%,?,-0.8%,.,5.5%,.,10.0%,33.2%[activator]
CCCC(=O)Nc1c2c(nn1-c1ccc(F)cc1)CS(=O)(=O)C2,1.4%,-33.3%[46.1 µM],1.2%,.,-17.6%,.,-16.8%[46.1 µM],-5.3%
O=C(CC1N=C2c3ccccc3N=C(SCc3cccc(Cl)c3)N2C1=O)NCc1ccc2c(c1)OCO2 (stereo not given),.,.,.,-6.4%,.,-1.7%,-28.0%[46.1 µM],-27.9%
CCOC(=O)c1c(C)oc2nc(C)nc(N(C)Cc3ccccc3)c12,.,.,.,-7.1%,.,0.5%,-24.0%[46.1 µM],?
CCn1c(=O)cc(OCC(=O)NCCCN2CCN(c3cccc(Cl)c3)CC2)c2ccccc21,-1.9%,?,-3.4%,1.0%,-3.7%,0.8%,-14.0%,-23.6%
CCCCNC(=O)C1=C(N)C(C(=O)Nc2ccc(C)c(S(=O)(=O)N3CCCCC3)c2)SC1=Nc1ccc(C)cc1C (stereo not given),?,12.6µM*,-6.4%,7.1%,-19.2%,7.94µM*,-24.8%,-21.5%
O=C(COc1ccc(-n2cnnn2)cc1)Nc1ccc(F)c(F)c1,.,-8.1%,0.3%,.,2.2%,.,-8.4%,-15.3%
Cn1c(=O)[nH]c(=O)c2c1nc(SCC(=O)O)n2CCOc1ccccc1,2.6%,19.7%[46.1 µM],0.0%,.,11.6%,.,3.2%[46.1 µM],-14.6%
Cc1ccc(/C(N)=N/OC(=O)/C=C/c2ccccc2)cc1,-155.7%,?,-24.8%,0.3%,-23.9%,6.7%,-4.6%,22.2%
Cc1ccccc1CSCCC(=O)NCCc1ccccc1,.,?,-3.6%,.,3.5%,.,4.9%[46.1 µM],-2.4%
O=[N+]([O-])c1c(NCCO)cc(Sc2nc3ccccc3s2)c2nonc12,-34.7%,?,1.7%,-19.3%,15.9%,-11.7%,-3.4%,?
CNC(=O)Nc1cc(C)nn1C,4.2%,.,-0.2%,.,4.4%,.,.,3.1%
CC1CCN(C(=O)c2ccc(NC(=O)CC3SC(N4CCCC4)=NC3=O)cc2)CC1 (stereo not given),.,-4.5%[46.1 µM],-0.1%,.,-2.4%,.,-0.1%,-0.9%
O=C1CCCCCCCCCC/C(=N\O)CCCO1,.,9.2%[46.1 µM],.,.,-3.2%,.,4.2%,-11.9%
CC1=C(C(=O)OCC2CCCO2)C(c2ccccc2)C2=C(CC(C)(C)CC2=O)N1 (stereo not given),.,-5.8%[46.1 µM],-0.2%,.,2.7%,.,-3.9%,-4.3%
Cc1ccc(O)c(N=CC2=C(O)c3ccccc3C2=O)c1,-5.2%,?,-17.7%,-15.0%,2.9%,-7.2%,?,12.3%
COc1cccc(C(=O)N2c3ncnn3C3(CCCCC3)[C@@H]3CCCC[C@@H]32)c1,.,-0.3%[46.1 µM],.,-4.6%,.,8.4%,-4.2%[46.1 µM],?
CC1CCCC(C)N1C(=O)CSc1nc(N)c(-c2ccccc2)c(=O)[nH]1 (stereo not given),0.4%,17.2%,-1.5%,1.6%,-3.2%,-18.0%,-4.0%,16.0%
COc1ccccc1C(=O)NCCSCc1c(F)cccc1Cl,-42.0%,.,-6.5%,.,0.4%,.,.,61.8%[activator]
NC(=O)C1CCN(C(=O)c2ccc(CS(=O)(=O)c3c(Cl)cccc3Cl)o2)CC1,?,.,-0.2%,8.5%,0.0%,-3.0%,.,-2.7%
CC(C)n1c2ccccc2c2nnc(SCC(=O)OCN3C(=O)c4ccccc4C3=O)nc21,5.3%,16.4%,-7.3%,-5.5%,-22.7%[3.69 µM],-29.9%,9.9%,-0.9%
COC(=O)C1(C(F)(F)F)N=C(N(C)C)OC(N(C)C)=N1,-1.2%,?,-2.3%,0.9%,4.3%,7.1%,-1.4%,2.6%
CC(=O)NC1=NN(C(C)=O)C(c2cccc([N+](=O)[O-])c2)S1 (stereo not given),0.0%,6.4%,-1.2%,-3.2%,12.2%,-9.3%,1.0%,-8.2%
COCCN(C(=O)COC(=O)c1cc2c(s1)CCCC2)c1c(N)n(Cc2ccccc2)c(=O)[nH]c1=O,.,26.3%,.,.,-7.4%,.,-12.5%,-10.1%
FC(F)(F)c1ccccc1/C=N/N1CCN(Cc2ccccc2)CC1,3.3%,3.7%,20.1%,-1.7%,6.5%,-7.0%,5.3%,41.3%[activator]
O=C1c2ccccc2C(=O)N1CCC(c1ccccc1)c1ccco1 (stereo not given),1.2%,19.1%,-8.8%,-0.5%,26.8%,-7.8%,22.3%,2.9%
CCCOC(=O)C(C)Sc1n[nH]c(=O)[nH]c1=O (stereo not given),.,13.2%,3.3%,.,6.7%,.,-1.6%,-13.9%
CC1CC(C)(C)CC2(C1)NC(=O)N(CC(=O)Nc1nccs1)C2=O (stereo not given),.,-17.2%,-4.8%,.,0.0%,.,3.7%[46.1 µM],?
CCOC(=O)C1CCCN(CC(O)COc2ccc(OC)cc2C(C)(C)C)C1 (stereo not given),-8.2%,?,2.1%,5.5%,-17.1%,17.9%,-6.7%,-8.5%
NS(=O)(=O)c1cccc(NC(=O)COC(=O)CCC2CCCC2)c1,.,5.2%,2.2%,.,-0.4%,.,-11.5%,-8.6%
COc1ccccc1C(=O)C1CCCN(C(=O)CCn2cnnn2)C1 (stereo not given),4.0%,.,-1.1%,.,-0.1%,.,.,9.7%
CCN(CC)C(=O)Oc1cc2c(-c3cc4cccc(OC)c4o3)cc(=O)oc2cc1C,4.6%,26.4%[46.1 µM],?,.,6.9%,.,?,-15.1%
O=C(NP(=O)(N1CCOCC1)N1CCOCC1)C1=C(N2CCOCC2)/C(=C\c2ccccc2)CC1,4.3%,17.0%[14.2 µM],-1.8%,.,-28.3%,.,-2.7%,12.7%
COc1ccc(C(=O)COC(=O)c2ccco2)cc1,-0.3%,18.8%,-2.5%,-8.6%,?,-19.0%,?,-11.2%
O=C(O)C1CCCN(S(=O)(=O)c2cccs2)C1 (stereo not given),2.5%,2.9%,-21.3%,3.7%,7.4%,-4.0%,15.5%,.
O=C(Nc1ccc(F)cc1)Nc1ccc2c(c1)CCC2,-1.6%,3.6%[46.1 µM],0.3%,.,3.2%,.,9.5%[46.1 µM],24.0%
COc1cccc(C(=O)NOCc2ccc(C)cc2)c1OC,.,29.6%,3.1%,.,-14.2%,.,12.2%,14.2%
Cc1ccccc1C(=O)N1CCN=C1SCc1ccc([N+](=O)[O-])cc1,.,-16.1%,-3.1%,.,32.0%,.,?,?
Brc1ccc(-c2c[n+]3c(n2-c2ccccc2)SCC3)cc1,-1.2%,-4.9%[46.1 µM],-0.7%,.,-2.9%,.,?,?
CC(=O)[C@@]1(O)[C@H](C)CC2C3CC=C4CC(OP(=O)(O)O)CC[C@]4(C)C3CC[C@@]21C (stereo not given in full),3.2%,-1.6%,0.3%,.,-15.6%,.,.,-5.3%
COc1cccc(OCCSc2nc3ccccc3n2CC(=O)N2CCCCC2)c1,.,-27.0%[46.1 µM],.,-4.0%,.,12.4%,-20.3%[46.1 µM],-17.8%
COc1ccc(-c2cnnn2-c2ccc(NC(=O)c3ccc(S(=O)(=O)N4CCCCC4)cc3)cc2)cc1OC,5.01µM*,?,10.2%,-4.0%,6.5%,-25.1%,?,2.1%
Cc1ccccc1OCC(=O)Nc1ccc(C)c(S(=O)(=O)N2CCCCCC2)c1,.,?,-4.0%,.,33.8%,.,?,-24.0%

(list continues)
canonical_smiles,NS1 inh,Marburg entry inh,SARS PLP yeast,Cruzain Triton,RE007 growth inh,Cruzain inh noDet,LASV entry inh,StopGo reporter
COc1ccc(CCC(=O)N(C)CC(=O)Nc2cc(C)ccc2C)cc1,-2.0%,20.6%[46.1 µM],-1.3%,.,-1.1%,.,7.5%,-6.9%
Cc1nnc2n(c1=O)N=C(c1ccc(Cl)cc1)CS2,?,?,26.6%,-6.6%,-13.5%,0.8%,?,7.4%
COc1ccc(-c2noc(CCC(=O)N3CCN(c4cccc(F)c4)CC3)n2)cc1,.,-4.3%,14.1%,.,-5.4%,.,.,?
O=C(NC(Cc1c[nH]c2ccccc12)C(=O)O)c1ccc2c(c1)OCO2 (stereo not given),2.9%,.,-0.5%,.,-6.6%,.,.,-1.1%
C(=C\c1nc(N2CCCCCC2)c2ccccc2n1)/c1ccccc1,-41.6%,11.2µM*,-52.6%,-9.0%,-26.6%,13.4%,-4.9%,39.8µM*
COc1ccc(C2c3c(ncn(CCCO)c3=N)Oc3ccc4ccccc4c32)cc1 (stereo not given),-11.2%,?,-0.5%,.,-3.5%,.,?,?
